Ba CapD inh = Bacillus anthracis CapD inhibitors, primary screen, biochemical, fluorescence intensity. CapD gamma-glutamyltranspeptidase (Bacillus anthracis Ames Ancestor). purified CapD enzyme, fluorescence intensity read-out; active compounds read low; some hits fall short of the stated cut. z-score (no concentration beside the values). 140,000 compounds, 0.23% hits. AID 492967, 2010;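 active means z-score under -4 in either of two replicates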;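 further: stock transfer was 100 nL into about 40 µL; score is relative to mean and spread of the plate; one replicate is shown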
AID504770 = growth inhibition of E. coli YBA685, primary screen, V. cholerae RctB inhibitors. E. coli YBA685 rctB-dependent plasmid, OD600 growth, 3 h; active compounds read low. z-score (no concentration beside the values). 130,000 compounds, 0.27% hits;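 active means z-score under -2 on both plates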;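 further: wells of about 30 µL received 100 nL stock; score is relative to mean and SD of the test wells; the first replicate is given; strong numbers were not always called active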
* marks the source's active call; other numbers are inactive results. Rows are unselected; about 0.39% have a hit in one of these screens.

For O=C(O)c1ccc2snnc2c1 the results were Ba CapD inh -0.31.
For Nc1ccc(Oc2ccc(C(=O)O)c(C(=O)O)c2)cc1 the results were AID504770 0.25.
O=C(CSc1ccc(Cl)cc1)N1CCc2ccccc21 was read as Ba CapD inh 0.065 and AID504770 -0.4.
For CN(C)c1oc(-c2ccc(Cl)cc2Cl)nc1[P+](c1ccccc1)(c1ccccc1)c1ccccc1 the results were Ba CapD inh -0.5.
O=C(CC(NC1CCCCC1)C(=O)O)c1ccc(C2CCCCC2)cc1 (configuration not stated) was read as Ba CapD inh -0.28 and AID504770 1.3.
Screening CN1C(=O)C(C)(C)c2cc(S(=O)(=O)NCCN3CCN(c4ccccc4F)CC3)ccc21 returned Ba CapD inh 1.2 and AID504770 0.15.
Cc1ccc(Sc2c(N3CCOCC3)cnn(-c3ccc(C)cc3)c2=O)cc1 was read as Ba CapD inh -0.81.
Screening O=[N+]([O-])c1ccc(NCCNS(=O)(=O)c2c(F)cccc2F)nc1 returned Ba CapD inh -2.3.
For CC1CCCN(c2ccc(C(=O)NCc3ccccc3)cn2)C1 (configuration not stated) the results were AID504770 -0.5.
For O=C1OC2(CCCC2)OC(=O)C1=Cc1ccc(N2CCOCC2)o1 the results were AID504770 -0.05.
CC1=C(C(=O)Nc2ccccc2Cl)C(c2ccc(C)cc2)NC(=O)N1 (configuration not stated) was read as Ba CapD inh -0.27.
Screening O=C(Nc1nc2nc(-c3ccccc3)cc(-c3ccccc3)n2n1)c1ccccc1 returned Ba CapD inh -0.66 and AID504770 -0.9.
Screening O=C(CN1C(=O)c2ccccc2C1=O)Nc1ccc(F)cc1 returned Ba CapD inh 0.63 and AID504770 -0.2.
Screening O=C1c2ccccc2C(=O)N1CSc1ncccn1 returned Ba CapD inh -0.15 and AID504770 -0.55.
For Cc1cccc(NC(=O)Nc2sc3c(c2-c2nc4ccccc4s2)CCCC3)c1 the results were Ba CapD inh -0.065.
For Cc1c(C(=O)O)nn(-c2ccc(Cl)cc2)c(=O)c1C#N the results were Ba CapD inh -0.46 and AID504770 -0.15.
Screening COc1cc(OC)nc(C2CCN(C(=O)CCC(=O)N3CCc4ccccc4C3)CC2)n1 returned Ba CapD inh 0.08.
`CC(C)c1cccc(NC(=O)CCc2n[nH]c(=O)[nH]c2=O)c1` gave AID504770 0.8.
O=C(O)c1ccc(-n2ncc(Cl)c(Cl)c2=O)cc1 was read as Ba CapD inh 0.22 and AID504770 1.
For CC(C)S(=O)(=O)c1csc(C(=O)NN)c1-n1cccc1 the results were Ba CapD inh 0.6 and AID504770 -0.05.

Overlap with the part before: five entries; new compounds follow.
For Cc1c(C(=O)O)nn(-c2ccc(Cl)cc2)c(=O)c1C#N the results were Ba CapD inh -0.46 and AID504770 -0.15.
Screening COc1cc(OC)nc(C2CCN(C(=O)CCC(=O)N3CCc4ccccc4C3)CC2)n1 returned Ba CapD inh 0.08.
`CC(C)c1cccc(NC(=O)CCc2n[nH]c(=O)[nH]c2=O)c1` gave AID504770 0.8.
O=C(O)c1ccc(-n2ncc(Cl)c(Cl)c2=O)cc1 was read as Ba CapD inh 0.22 and AID504770 1.
For CC(C)S(=O)(=O)c1csc(C(=O)NN)c1-n1cccc1 the results were Ba CapD inh 0.6 and AID504770 -0.05.
`CC(C)(CS)C(=O)N1CCC[C@@H]1C(=O)O` gave Ba CapD inh -0.28.
Screening Cc1ccc(C(=O)C2CCN(C(=O)c3cccs3)CC2)cc1 returned Ba CapD inh 0.26.
For CC(CCc1ccco1)Nc1nc(-c2ccccc2F)no1 (configuration not stated) the results were Ba CapD inh 0.38 and AID504770 -0.4.
For CCOc1ccsc1C(=O)NNC(=O)OCC12OCC3OC(C)(C)OC3C1OC(C)(C)O2 (configuration not stated) the results were Ba CapD inh 0.81.
`NS(=O)(=O)c1ccc(NC(=O)CN2CCc3ccccc32)cc1` gave Ba CapD inh 1.1 and AID504770 0.2.
CCOC(=O)C1=C(N)OC2=C(C(=O)CCC2)C1c1ccc(C)s1 (configuration not stated) was read as Ba CapD inh 0.02.
Screening O=C(CCCn1c(=S)[nH]c2ccccc2c1=O)N1CCc2ccccc21 returned Ba CapD inh 0.71 and AID504770 1.1.
CCOC(CSc1nc2ccccc2[nH]1)OCC was read as Ba CapD inh -0.41 and AID504770 -0.95.
COC(=O)C1=C(C)N(C(C)c2ccccc2)C(=O)C1 (configuration not stated) was read as Ba CapD inh -0.46 and AID504770 1.
`CN1CCN(S(=O)(=O)c2ccc(CNC(=O)c3ccccc3)s2)CC1` gave Ba CapD inh 0.33 and AID504770 2.
Screening Cc1cc(C(=O)N2C=CC(C(F)(F)F)=NCC2)nn1C returned Ba CapD inh -0.47 and AID504770 -0.25.
`Clc1ccc(OCc2cn3ccccc3n2)cc1` gave Ba CapD inh 4.9 and AID504770 -1.4.
For Cc1ccc(Cn2c(=O)c3c(ncn3Cc3ccccc3)n(C)c2=O)cc1 the results were Ba CapD inh -0.27.
`N#Cc1cnc(SCC(=O)N2CCCCC2)nc1N` gave Ba CapD inh -0.52 and AID504770 0.7.
`CCN1C(=O)NC(=O)/C(=C\c2cn(CC(=O)O)c3ccccc23)C1=O` gave Ba CapD inh -3 and AID504770 -1.1.
`CCOC(=O)c1ccc2[nH]c(C)c(C)c2c1` gave Ba CapD inh 3.7 and AID504770 -0.7.
Screening Cc1ccc(-c2nc(C=Nc3ccc4c(c3)OCCO4)c(O)o2)cc1 returned Ba CapD inh -1.4 and AID504770 1.5.
Screening CCCOc1cccc(C(=O)Nc2c[nH]c(=O)[nH]c2=O)c1 returned Ba CapD inh 0.085 and AID504770 0.6.
For Cc1nnsc1C(=O)NCCc1c[nH]c2ccccc12 the results were Ba CapD inh 0.85 and AID504770 0.05.
CCCN(CCC)C(=O)c1cn(C)c2ccc(S(=O)(=O)N(CC)CC)cc2c1=O was read as Ba CapD inh -1.1 and AID504770 -0.3.
`CC1CCCC(C)N1Cc1cn2ccccc2n1` (configuration not stated) gave Ba CapD inh 0.38 and AID504770 1.5.
`COc1cccc(NC(=O)/C=C/c2ccco2)c1` gave AID504770 -0.6.
COc1ccc(-c2nnc(SCc3nc4ccccc4c(=O)n3CC#N)o2)cc1 was read as AID504770 0.75.
Cc1ccccc1NC(=O)C1CCCCC1 was read as Ba CapD inh 0.06 and AID504770 1.5.
Screening CCN1C(=O)c2ccccc2S(=O)(=O)c2ccc(C(=O)NCC3CCCO3)cc21 (configuration not stated) returned Ba CapD inh 0.29 and AID504770 -0.4.
CC1C(=O)CC(c2ccccc2)OC1c1ccccc1 (configuration not stated) was read as Ba CapD inh 0.25 and AID504770 -0.85.
Screening Cc1cc(C)cc(N(CC(=O)N=Nc2c(O)[nH]c3ccccc23)S(C)(=O)=O)c1 returned Ba CapD inh -1.2 and AID504770 -0.55.
`CCn1c(=N)c(C(N)=O)cc2c(=O)n3ccccc3nc21` gave AID504770 2.6.
`CCCCOc1ccc(/C=C(\C#N)c2nc(-c3cc4c(ccc5ccccc54)oc3=O)cs2)cc1` gave Ba CapD inh 0.79.
For O=C(CCC1CCCC1)NCc1nc(-c2ccccc2)no1 the results were Ba CapD inh 0.56 and AID504770 0.4.
For Fc1ccccc1-n1c(CCc2nc(-c3ccc(Cl)cc3)no2)n[nH]c1=S the results were Ba CapD inh 0.07.
Fc1ccc(Nc2ncnc3c2oc2ccccc23)cc1 was read as Ba CapD inh -0.44 and AID504770 -0.6.
For CN1C(N)=NC(=O)/C1=C/c1cc(Br)c(O)c(Br)c1 the results were Ba CapD inh -2.7 and AID504770 -1.1.
Screening O=C1CC(c2cccc(Cl)c2Cl)c2ccc3ccccc3c2N1 (configuration not stated) returned Ba CapD inh -0.26.
Screening COc1ccc2c(C=NC(C)(C)C)c(O)n(Cc3ccccc3)c(=O)c2c1 returned Ba CapD inh -0.23 and AID504770 0.15.
For CCOc1cccc2cc(C(=O)Nc3nccs3)c(=Nc3ccc(C)c(C)c3)oc12 the results were Ba CapD inh 4.3 and AID504770 -0.8.
`O=C(CSc1nnc(CNC(=O)c2ccc(S(=O)(=O)N3CCOCC3)cc2)n1-c1ccc(F)cc1)Nc1ccc(F)cc1` gave Ba CapD inh -0.16.
CC(C)n1c(COc2ccccc2)nc2ccccc21 was read as Ba CapD inh 0.07 and AID504770 -0.6.
Screening O=c1/c(=C/c2ccc3c(c2)OCO3)sc2nc3cccnc3n12 returned Ba CapD inh 0.24.
For COc1cc(OC)cc(-c2nc3ccccc3c(=O)n2OC(=O)c2cc(C)c(C)cc2C)c1 the results were Ba CapD inh 0.69.
`C=CCNc1nnc(SCC(=O)NC2CCS(=O)(=O)C2)s1` (configuration not stated) gave AID504770 -0.35.
Screening CCc1ccc(NC(=O)c2sc3nc(N)c(C#N)c(-c4ccc(OC)c(OC)c4)c3c2N)cc1 returned Ba CapD inh -0.42.
`CC(=O)c1c(C)oc2ccc(N(C(C)=O)S(=O)(=O)c3ccc(C(C)(C)C)cc3)cc12` gave Ba CapD inh -1.1.
`O=C(COc1ccccc1)NCC1CCCO1` (configuration not stated) gave AID504770 1.1.
Nc1nc(SCC(=O)Nc2ccccc2)ncc1S(=O)(=O)c1ccccc1 was read as Ba CapD inh -0.3 and AID504770 1.1.
`CC1=C(C(=O)OCc2ccccc2)C2(C(=O)Nc3ccc(F)cc32)C(C#N)=C(N)O1` (configuration not stated) gave Ba CapD inh 0.33.
For O=C(OCCCCc1ccc([N+](=O)[O-])cc1)N1CCC2(CC1)OCCCO2 the results were Ba CapD inh -1.2.
For CSc1nc(N/C=C(\C#N)C(=O)c2cccs2)n2nc(C)cc2n1 the results were Ba CapD inh -1.1 and AID504770 0.75.
For C=CCn1c(=O)c(C(=O)NCC2CCCN2CC)c(O)c2cc(OC)c(OC)cc21 (configuration not stated) the results were AID504770 -0.1.
`Cc1cc(C(=O)CSc2nnc(CCC(N)=O)n2CC(C)C)c(C)n1-c1ccc(C(C)C)cc1` gave AID504770 0.2.
`C/C(=C\c1nsc(Nc2ccccc2)n1)NCc1ccc(C)cc1` gave Ba CapD inh 8.8.
Screening O=c1c2c(n3nnnc3n1Cc1ccccc1)-c1ccccc1CC21CCCCC1 returned Ba CapD inh 1.5.
Screening COc1cc(-c2cc(C(F)(F)F)n3ncc(C(=O)Nc4c(C)n(C)n(-c5ccccc5)c4=O)c3n2)cc(OC)c1OC returned Ba CapD inh -0.29.
Cc1cc(C)c(C#N)c(SCC(=O)NC(C)(C)C)n1 was read as Ba CapD inh -0.53 and AID504770 -0.25.
`Cc1ccc(S(=O)(=O)CC(C)(O)C(=O)Nc2ccc(Cl)cc2)cc1` (configuration not stated) gave Ba CapD inh -0.66.
`CCC1C(O)CC(c2ccccc2)NC1c1ccccc1` (configuration not stated) gave Ba CapD inh -0.56 and AID504770 -0.75.
`OCC1CCCCN1C(=S)NCCc1ccccc1` (configuration not stated) gave Ba CapD inh 0.7 and AID504770 -0.15.
`CN(C)C1(CNC(=S)NC2CCCCC2)CCCCC1` gave AID504770 1.5.
CCn1cc(C(=O)NCc2ccccc2Cl)c(=O)c2cc(S(=O)(=O)N(C)C)ccc21 was read as Ba CapD inh 0.64 and AID504770 -0.1.
`O=C(OCc1ccccc1)c1ccncc1` gave Ba CapD inh 1.2 and AID504770 -0.35.
For Cc1ccc(C2C(N)C(=O)N2c2ccc(C)cc2)cc1 (configuration not stated) the results were Ba CapD inh 2.5 and AID504770 -0.25.
Screening CCOc1ccc(CCNC(=O)Cn2sc3nc(C)cc(C)c3c2=O)cc1 returned Ba CapD inh 1.3 and AID504770 -0.4.
For C(=N\c1nc2c(s1)CCc1ccccc1-2)/c1ccc2c(c1)OCO2 the results were Ba CapD inh 0.01.
For O=C(Nc1nnc(-c2ccccc2)o1)Nc1ccccc1Cl the results were Ba CapD inh 6.2 and AID504770 -0.1.
Screening O=S(=O)(c1cccc(F)c1)N1CCN(Cc2ccco2)CC1 returned Ba CapD inh 0.42.
For COC(=O)c1sc2ncn(-n3cccc3)c(=O)c2c1C the results were AID504770 -0.25.
`CN(C)S(=O)(=O)c1ccc(C(=O)NC(=O)CSc2nnc(C3CC3)n2-c2ccccc2)cc1` gave AID504770 -0.3.
Screening CC(C)C(=O)Oc1cc(OC(=O)C(C)C)c2ccccc2c1 returned Ba CapD inh -0.36 and AID504770 2.
`Cc1ccc(-c2nnc(N3CCOCC3)c3ccccc23)cc1S(N)(=O)=O` gave Ba CapD inh -0.34.
For COc1cccc(NC(=O)CCCN2C(=O)/C(=C\c3ccco3)SC2=S)c1 the results were Ba CapD inh -0.4 and AID504770 -1.
For O=C(COc1ccccc1Cl)N1CCc2ccccc2C1 the results were Ba CapD inh -0.46 and AID504770 -0.95.
CCOCCOC(=O)C1=C(C)NC2=C(C(=O)CC(c3ccc(Cl)cc3)C2)C1c1ccc(OCC)cc1 (configuration not stated) was read as Ba CapD inh 15.
Screening O=C(Nc1cc(C(F)(F)F)cc(C(F)(F)F)c1)c1ccc(Cl)cc1 returned Ba CapD inh 0.53.
For O=C(CSCc1cnn(-c2ccccc2)c1-n1cccc1)NCCc1ccccc1 the results were Ba CapD inh -1.3 and AID504770 -1.1.
Screening CC1(C)C2CC=C(CN3CCC(O)CC3)C1C2 (configuration not stated) returned Ba CapD inh -0.12 and AID504770 -0.75.
`CC(Sc1nc(N)cc(=O)[nH]1)c1nc2ccccc2c(=O)[nH]1` (configuration not stated) gave AID504770 -0.95.
`CNC(=O)NC(=O)CSc1nc2sc3c(c2c(=O)n1C)CCCC3` gave AID504770 -0.15.
For Cn1c(Cc2ccccc2)nnc1SCC#N the results were AID504770 -0.6.

Of the compounds above, 3 have a tert-butyl group.
Screening COc1ccc2c(C=NC(C)(C)C)c(O)n(Cc3ccccc3)c(=O)c2c1 returned Ba CapD inh -0.23 and AID504770 0.15.
`CC(=O)c1c(C)oc2ccc(N(C(C)=O)S(=O)(=O)c3ccc(C(C)(C)C)cc3)cc12` gave Ba CapD inh -1.1.
Cc1cc(C)c(C#N)c(SCC(=O)NC(C)(C)C)n1 was read as Ba CapD inh -0.53 and AID504770 -0.25.

Screens: PubChem BioAssay, ICCB-Longwood Screening Facility, Harvard Medical School
